Source: PubChem
ClpP mod: qHTS Assay for Activators of ClpP. AID 651965, 2013. Potency, µM (series often up to 57.5 µM), for the others: at the highest dose activity change, negative = active. actives 1.9% (n = 340,000). purified B. subtilis ClpP, FRET peptide cleavage, 20 min; active = well fitted falling curve with a large enough effect; inconclusive = small, poorly fitted or top-dose-only effect; inactive = no such curve, though single readings can be large or run the other way; also: potency is read from the fitted curve at half-maximal effect; the source files actives as falling curves though it sought activators and does not explain the sign; nearly all actives have a fitted effect of over 65% in size; many hits overshoot -100%
Target sequence (P80244 whole entry, looked up): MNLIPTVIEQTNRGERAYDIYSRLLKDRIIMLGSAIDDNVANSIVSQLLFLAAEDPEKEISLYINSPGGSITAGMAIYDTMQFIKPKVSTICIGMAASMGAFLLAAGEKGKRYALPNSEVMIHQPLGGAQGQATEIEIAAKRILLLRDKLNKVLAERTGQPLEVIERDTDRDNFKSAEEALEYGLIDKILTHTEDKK
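FRET quenching reversal measured ClpP activation: 10 microg/mL B. subtilis ClpP at pH 8 with the FRET-FV decapeptide, read at 430 nm after 320 nm excitation. The 20-min minus 0-min signal was scaled between DMSO/no-enzyme wells and ADEP (5.8 microM final).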
TRPV1 PAM: enhances activation of the human vanilloid receptor TRPV1. actives 0.02% (n = 320,000). TRPV1-expressing cells, Fluo-8 calcium influx, capsaicin EC20 potentiation; host cell line not named in the record; control for the full effect not named in the record. potentiation, % at 8.33 µM. Q8NER1. AID 540277; active means potentiation above 80%; inconclusive means 30% to 80%; inactive means below 30%; also: 0% is about no effect
Target sequence (Q8NER1 whole entry, looked up): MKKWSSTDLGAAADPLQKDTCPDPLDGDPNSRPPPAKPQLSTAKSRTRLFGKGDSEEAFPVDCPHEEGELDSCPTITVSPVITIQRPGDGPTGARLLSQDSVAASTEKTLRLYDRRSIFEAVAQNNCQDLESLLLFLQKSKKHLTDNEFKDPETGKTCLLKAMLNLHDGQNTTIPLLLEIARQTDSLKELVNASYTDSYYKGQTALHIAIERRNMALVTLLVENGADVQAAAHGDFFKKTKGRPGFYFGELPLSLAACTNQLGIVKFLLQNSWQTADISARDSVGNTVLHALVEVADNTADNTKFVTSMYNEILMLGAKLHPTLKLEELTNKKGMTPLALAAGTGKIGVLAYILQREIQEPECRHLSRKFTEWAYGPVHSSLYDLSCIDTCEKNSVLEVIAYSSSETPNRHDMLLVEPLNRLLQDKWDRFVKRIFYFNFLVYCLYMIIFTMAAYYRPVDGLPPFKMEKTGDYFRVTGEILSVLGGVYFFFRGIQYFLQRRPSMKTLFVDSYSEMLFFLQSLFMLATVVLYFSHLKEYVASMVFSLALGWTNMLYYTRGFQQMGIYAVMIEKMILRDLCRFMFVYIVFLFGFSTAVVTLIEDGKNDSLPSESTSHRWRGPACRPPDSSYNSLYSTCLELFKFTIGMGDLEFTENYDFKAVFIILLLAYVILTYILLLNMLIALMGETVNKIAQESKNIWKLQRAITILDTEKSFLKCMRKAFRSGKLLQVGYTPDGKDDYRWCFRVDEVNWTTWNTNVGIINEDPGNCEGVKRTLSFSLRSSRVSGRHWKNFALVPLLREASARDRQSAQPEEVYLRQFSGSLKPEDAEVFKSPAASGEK
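Fluo-8 calcium influx in TRPV1-expressing cells, kinetic read (ex 480/em 520 nm). Compound added and read 3 min for agonist activity, followed by capsaicin at EC20 final and 2 min further read for enhancement.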
CtBP-E1A inh: blocks the CtBP interaction with E1A; actives 0.49% (n = 340,000); activity change, % (no concentration beside the values); AlphaScreen GST-E1A/His-CtBP binding, 1536-well; hits give low values; control for the full effect not named in the record; in the data active means activity change below about -65%; inconclusive means about -30% to -65%; inactive means above about -30%; also: % is scaled to controls: 0 for no effect and ±100 for the full control effect; compound concentration not given in the record
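AlphaScreen with 125 nM GST-E1A and 125 nM His-CtBP (5X stocks) in Tris pH 8.0, 300 mM NaCl, BSA, Tween 20, TCEP. Compounds preincubated 2 h at 37 deg C, then glutathione donor/nickel acceptor beads added for 1 h at 37 deg C in dark.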
gsp antag: gsp mutant antagonism | gsp-mutant cells, cAMP HTRF, 30 min; control for the full effect not named in the record | Potency, µM (doses to about 76.9 µM), without a hit: at the top dose activity change, negative = inhibition, hits mostly inhibitors | actives 0.4% (n = 340,000); active = falling curve of any shape with a large fitted effect; inconclusive = falling curve, mostly with a smaller effect; inactive = flat or rising curve; cell line not stated here;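 also: intracellular cAMP measured with PDE inhibitor Ro 20-1724 present during compound exposure; potency is read from the fitted curve at half-maximal effect; % is scaled to controls: 0 for no effect and ±100 for the full control effect; nearly all actives have a fitted effect of over 65% in size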
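G418-selected cells were plated in DMEM/10% FBS for 16-24 h at 37C, then treated with compounds plus the PDE inhibitor […] (300 uM solution added) for 30 min at 37C. Intracellular cAMP was measured by HTRF after 30 min lysis at room temperature.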
Menin MLL FP FL: inhibitors of human menin-MLL interaction, wild-type MLL peptide; Fluorescence polarization, fluorescein-MLL peptide displacement from menin; FP activity change, % at 61.4 µM; 290,000 tested, under 10 active; inconclusive = falling polarisation curve, or a change in total fluorescence; inactive = total fluorescence flat and polarisation flat or rising; no compound was filed as active; the % refers to the polarisation; negative = inhibition;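 also: % of control where 0% means no effect; inhibitors lower the polarisation; unlabelled MLL peptide was the positive control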
Sfp PPTase inh: inhibitors of Bacillus subtilis Sfp phosphopantetheinyl transferase; Q9F4F7; Biochemical Sfp PPTase activity, qHTS; Potency, µM, for the others: max response, negative = inhibition, usual class: inhibitors; actives 3.5% (n = 310,000); AID 1490; active = well fitted inhibition curve with a large enough effect; inconclusive = small, poorly fitted or top-dose-only effect, or another doubt; inactive = no such curve, though single readings can be large or run the other way;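 also: the enzyme is Sfp with the accession as filed and its product quenches rhodamine fluorescence; potency is read from the fitted curve at half-maximal effect; 0% = enzyme reaction without inhibitor and -100% = no enzyme wells; top concentration of the series not given in the record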
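After 15 min at room temperature with compound, 15 nM Sfp received 5 uM rhodamine-CoA plus 12.5 uM BHQ-2-ybbR (50 mM Hepes pH 7.6, 10 mM MgCl2). Rate came from the fluorescence difference over 30 min, ex 525/em 598 nm.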
gsp agonist: gsp mutant agonism | AID 624287 | Potency, µM (series often up to 76.9 µM), for inactives: at the top dose activation (cAMP increase), actives largely listed as activators | gsp mutant cells, cAMP HTRF, 30 min; control for the full effect not named in the record | actives 0.13% (n = 340,000); active = well fitted activation curve with a large enough effect; inconclusive = small, poorly fitted or top-dose-only effect, or another doubt; inactive = no such curve, though single readings can be large or run the other way; cell line not stated here;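 also: phosphodiesterase inhibitor Ro 20-1724 added with compounds to block cAMP breakdown; potency is read from the fitted curve at half-maximal effect; nearly all actives have a fitted effect of over 60% in size; about a fifth of the inactives were tested at one dose only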
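Cells in DMEM/10% FBS with G418 were pretreated with compounds in DMSO plus […] (300 uM stock) for 30 min at 37C. cAMP was measured by HTRF (cAMP-d2 plus anti-cAMP antibody-K) after 30 min at room temperature.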
* = called active by the depositor; u = inconclusive; x = not tested or not shown; [ ] = remark or other dose.

SMILES	ClpP mod	TRPV1 PAM	CtBP-E1A inh	gsp antag	Menin MLL FP FL	Sfp PPTase inh	gsp agonist
CC(=O)Nc1ccc(NC(=O)CC(NC(=O)c2ccccc2)c2ccccc2)cc1 (stereo not drawn)	-1.8%	-9.4	-4.7	15.1%	3.6	-6.5%	-6.9%
COc1ccc(C(=O)NCC2CCCO2)cc1S(=O)(=O)N1CCCc2ccccc21 (stereo not drawn)	121.7%	-2.9	2.7	-3.6%	5.8	11.2%	-3.8%[15.4 µM]
COc1cc(C2CC(=O)C3=C(C2)Nc2ncnn2C3c2cccs2)cc(OC)c1OC (stereo not drawn)	x	4.9	10.8	-4.9%	8.0	26.7%	21.2%
C/C=C(\C)CN1CCN(c2ccc(C)cc2)CC1	-0.6%	-1.3	-3.1	-2.5%	4.6	-9.7%	-0.6%
O=C(COC(=O)/C=C/c1ccccc1[N+](=O)[O-])NC1CC1	-1.4%	-8.4	1.1	-2.0%	-0.9	9.4%	-1.7%[15.4 µM]
CCS(=O)(=O)c1ncc(Cl)c(C(=O)Nc2ccc(C)cc2)n1	x	4.2	3.3	u	1.9	u	4.8%
COc1cc(S(=O)(=O)N2CCN(C(=O)C3CC3)CC2)ccc1NC(C)=O	-0.4%	x	1.9	10.4%	x	x	18.5%
N#Cc1c(-c2cccc([N+](=O)[O-])c2)nc2n(c1=O)CCS2	0.2%	11.4	-2.9	3.4%	3.8	15.0%	21.8%[15.4 µM]
CCc1ccc(C(=O)NNc2ccc(F)cc2)cc1	x	-7.5	-3.9	2.2%	-1.9	-4.5%	5.6%
CCc1ccc(-c2cc(C(=O)NCc3ccco3)c3ccccc3n2)s1	28.2µM*	24.9	-2.3	-2.9%	10.6	31.6µM*	-15.1%
CSc1cccc(CNC(=O)C2CCC(=O)N(CCc3ccccc3)C2)c1 (stereo not drawn)	-3.6%	x	-11.9	x	x	x	6.6%
CC(=O)N/N=C(\C)CC(=O)Nc1cccc(C(F)(F)F)c1	x	2.0	0.0	x	1.4	16.4%	-12.2%[15.4 µM]
Cc1c(-c2cccc(Cl)c2)nc2ccccc2c1C(=O)NC1CC1	0.6%	6.5	30.7	-10.8%	x	3.0%	32.3%
CCOc1c(OC)ccc2c3c(c(=O)oc12)CCCC3	u	4.0	3.2	-18.0%	1.7	-21.2%	21.5%
COCCn1c(SCC(=O)Nc2ccc(F)cc2)nc2c([nH]c3ccccc32)c1=O	-4.5%	-2.4	4.0	5.5%	u	-8.5%	25.4%
Cc1cc(C)c(C(=O)O)c(CC(C)(C)C(=O)O)c1	x	0.3	5.1	4.9%	1.2	-17.4%	3.9%[15.4 µM]
Cc1ccc(/C=C2\Sc3ccccc3C2=O)s1	1.8%	-5.1	-10.2	-16.7%	u	0.5%	24.0%
Cc1ccc(C)c(NC(=O)C2CC3c4ccccc4C2c2ccccc23)c1 (stereo not drawn)	-1.6%	3.6	5.4	3.4%	-2.4	26.8%	-59.7%[inhibitor]
Clc1ccc2scc(CN3CCCCC3)c2c1	-3.3%	0.6	0.0	3.4%	0.4	5.1%	27.0%
COc1cc2c(=O)n(CCC(=O)NCC3CCCO3)c(=O)n(CC(=O)Nc3ccccc3C)c2cc1OC (stereo not drawn)	4.2%	-5.8	3.1	8.6%	x	11.3%	-1.6%[15.4 µM]
O=C(Nc1ccc(Oc2ccccc2)cc1)c1ccc(Cn2c(=O)[nH]c3ccsc3c2=O)cc1	-6.0%	10.2	-19.1	2.1%	4.9	7.6%	u
Nc1ccc2c(c1)C(O)c1cccc(C(=O)O)c1-2 (stereo not drawn)	-24.2%	x	1.3	-3.1%	x	x	u
CCN1CCN(C(=S)NC(C)c2ccccc2)CC1 (stereo not drawn)	-7.0%	22.4	10.8	6.4%	0.9	-3.1%	-23.6%
CCSc1nc(N2CCOCC2)c2c(c1C#N)CCCC2	-10.1%	-10.3	4.6	u	2.2	-3.7%	-9.9%
COc1cccc(N(CC(=O)Nc2ccccc2C(=O)N2CCCC2)S(C)(=O)=O)c1	-9.7%	4.4	0.0	20.1%	5.7	14.4%	-2.2%[15.4 µM]

Continuation:
SMILES	ClpP mod	TRPV1 PAM	CtBP-E1A inh	gsp antag	Menin MLL FP FL	Sfp PPTase inh	gsp agonist
CCOC(=O)N1CCN(C(=O)c2ccccc2NC(=O)c2ccc(F)cc2)CC1	-3.1%	1.1	x	7.7%	3.9	11.6%	7.1%
COc1ccc(-c2nnc(NC(=O)Cc3ccccc3)o2)cc1	0.0%	-8.2	x	0.7%	-1.4	16.2%	-2.0%
COc1ccc(/C=C/C(=O)Nc2ccccc2)cc1OC	x	1.3	3.7	5.0%	-3.8	0.1%	-2.1%[15.4 µM]
O=C(NCCN1CCOCC1)c1cc(-c2ccccc2)on1	-0.4%	-3.5	5.9	2.6%	0.1	11.0%	-23.3%
Cc1onc(-c2c(Cl)cccc2Cl)c1C(=O)N1CCN(c2ccc(F)cc2)CC1	x	0.9	-2.1	-4.7%	1.8	13.1%	-7.0%
CN(C)c1ccc(CC(=O)c2nc3ccccc3s2)cc1	-2.1%	27.0	-14.6	5.5%	9.9	u	-100.9%[inhibitor]
Cc1cc(-c2n[nH]c(=S)n2/N=C/c2cccc([N+](=O)[O-])c2)n[nH]1	-1.2%	3.4	-27.5	-12.5%	0.9	-23.8%	-6.5%
CCNS(=O)(=O)c1ccc(CCC(=O)Nc2ccc3c(c2)OCO3)cc1	-9.3%	3.1	-3.3	-1.2%	-2.5	4.4%	-0.4%[15.4 µM]
Cc1c(C(=O)N2CCN(c3ccccn3)CC2)oc2c1C(=O)CC(C)(C)C2	-3.5%	-23.8	x	6.6%	x	13.8%	-23.2%
NC(=O)CN1C(=O)NC2(CCCc3sccc32)C1=O (stereo not drawn)	x	-4.1	-2.1	11.8%	-5.6	15.6%	2.9%[15.4 µM]
COC(=O)c1ccccc1NC(=O)COC(=O)[C@H](C)NC(N)=O	x	1.8	-1.1	-4.7%	2.4	-0.3%	13.9%[15.4 µM]
O=C(NC1CCCCCC1)C1c2ccccc2C(=O)N1Cc1ccco1 (stereo not drawn)	-0.8%	-2.2	9.2	-5.3%	2.5	-27.6%	4.2%
CCOc1ncccc1C(=O)Nc1ccc(F)c(Cl)c1	0.7%	-5.2	x	5.8%	-0.1	28.1%	1.6%
CC(C)C(NCC(=O)Nc1ccccc1C(=O)NC1CC1)c1ccccc1 (stereo not drawn)	x	x	1.1	0.3%	x	x	12.0%
O=C(CN(Cc1ccco1)C(=O)Cn1nnc(-c2cccs2)n1)NCc1ccccc1	-11.3%	-5.1	5.7	1.2%	2.3	-5.4%	-73.1%[inhibitor]
O=C(NCCC1=CCCCC1)c1ccc(-n2cncn2)cc1	-0.1%	-28.9	9.3	9.5%	x	x	11.3%
Cc1nnc2sc(SCC(=O)N3CCC(C)CC3)nn2c1=O	0.9%	3.8	-7.2	2.7%	x	21.1%	u
C[C@@H]1CCC2[C@](C)(CO)[C@@H](O)CC[C@]2(C)[C@@]12CC[C@@](CO)(CC(=O)O)O2 (stereo partly drawn)	1.9%	20.7	x	9.0%	1.0	15.6%	-15.3%
COC(=O)c1ccc(CSc2nnc(Nc3ccc(OC)cc3)s2)o1	-0.8%	-5.2	-0.1	-6.2%	3.3	-1.4%	-27.0%
CCN(Cc1ccccc1)C(=O)COC(=O)c1cnc(C)cn1	0.5%	2.6	6.9	6.9%	2.0	6.1%	-20.8%
Cc1ccc(S(=O)(=O)N2CCCC2)cc1C(=O)Nc1ccc(-n2cnnn2)cc1	-3.5%	-4.1	-17.9	8.4%	x	x	18.6%
CCN(CC)CCCN(C(=O)c1ccccc1F)c1nc(-c2ccc(OC)cc2)cs1	x	-2.4	-23.5	-3.6%	-4.2	-15.7%	-36.3%[inhibitor]
O=c1cc2ncc(-c3[nH]ncc3[N+](=O)[O-])cn2[nH]1	-1.0%	3.0	-0.3	3.1%	5.1	-9.9%	35.5%
CCc1nn(CC(=O)NCCCN2CCOCC2)c(=O)c2cc3cc(F)ccc3n12	3.4%	-1.6	-9.6	2.8%	-4.9	4.2%	u
O=C(NNC1CC(c2ccccc2)=NN1C(=O)c1ccccc1)c1ccccc1 (stereo not drawn)	2.1%	-12.4	-21.9	-17.0%	-3.2	-3.4%	-6.8%[15.4 µM]
N#Cc1sc2nc(C3CC3)cc(-c3ccc(Cl)cc3)c2c1N	u	-33.6	98.0	-9.4%	0.2	-4.2%	28.2%
COc1cccc(N2C(=O)C3C(C2=O)C3(c2ccccc2)c2ccccc2)c1 (stereo not drawn)	x	-9.3	0.1	-8.6%	1.6	-2.0%	-0.8%[15.4 µM]
Cc1ccc(OCC(=O)NNC(=O)c2ccccc2OCc2c(C)noc2C)cc1	-2.7%	5.5	-1.5	-1.0%	x	x	-0.1%[15.4 µM]
Cc1cc(C)n(CCn2nc(C)cc2C)n1	-9.9%	7.4	-2.1	9.8%	-1.1	-4.8%	-9.3%

5 entries drawn at random from the list so far:
SMILES	ClpP mod	TRPV1 PAM	CtBP-E1A inh	gsp antag	Menin MLL FP FL	Sfp PPTase inh	gsp agonist
CCNS(=O)(=O)c1ccc(CCC(=O)Nc2ccc3c(c2)OCO3)cc1	-9.3%	3.1	-3.3	-1.2%	-2.5	4.4%	-0.4%[15.4 µM]
Cc1onc(-c2c(Cl)cccc2Cl)c1C(=O)N1CCN(c2ccc(F)cc2)CC1	x	0.9	-2.1	-4.7%	1.8	13.1%	-7.0%
CN(C)c1ccc(CC(=O)c2nc3ccccc3s2)cc1	-2.1%	27.0	-14.6	5.5%	9.9	u	-100.9%[inhibitor]
NC(=O)CN1C(=O)NC2(CCCc3sccc32)C1=O (stereo not drawn)	x	-4.1	-2.1	11.8%	-5.6	15.6%	2.9%[15.4 µM]
CCOC(=O)N1CCN(C(=O)c2ccccc2NC(=O)c2ccc(F)cc2)CC1	-3.1%	1.1	x	7.7%	3.9	11.6%	7.1%
